Rango release inh: inhibition of RanGTP-driven Rango-importin beta dissociation. AID 540253. actives 0.071% (n = 340,000). Potency, µM (doses to about 46.1 µM), for the others: top-dose activity change, negative = inhibition. O95149+P62826. Biochemical FRET Rango-importin beta, RanGTP-induced dissociation; active means falling FRET ratio curve, often poorly fitted, with flat reads before Ran was added; inconclusive means other falling curves, or compound fluorescence or quenching; inactive means flat or rising ratio curve;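 further: potency means the concentration at half of the fitted maximal effect; % of control where 0% means no effect; nearly all actives have a fitted effect of over 45% in size; -100% = wells without RanGTP and RCC1; the record marks most hits as doubtful in a second field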
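FRET read at 45 min, room temperature: inhibitors block the CFP/YFP signal rise when RanGTP (0.6 uM Ran, 2 mM GTP, 0.2 uM RCC1) frees Rango (0.1 uM) from importin beta (0.25 uM). Pre-read after 5 min compound exposure flags interference.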
miR-21 reporter: raises the signal of a miR-21 reporter; Potency, µM (highest dose often 38.3 µM), without a hit: at the top dose reporter change, positive = more light; 340,000 tested, under 10 active; AID 2288; HeLa miR-21 FLuc reporter, luciferase, 48 h; active = well fitted rising curve with a large enough effect; inconclusive = small, poorly fitted or top-dose-only effect; inactive = no such curve, though single readings can be large or run the other way;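 further: % of control where 0% means no effect; miR-21 action dims this reporter so a rising signal means less miR-21 action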
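HeLa miR-21-FLuc reporter line, endogenous miR-21; 2000 cells/well in DMEM/10% FBS; compound titration up to ~40uM final, 48 h, 37 degree Celsius; luciferase detection reagent, 15 min lysis, CCD luminescence.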
GLA inh pH 4.5: blocks human alpha-galactosidase A at pH 4.5. 230,000 tested, under 10 active. AID 1467. activity change, negative = inhibition, % at 105 µM. purified enzyme, 4-MU-alpha-Gal fluorescence, pH 4.5. P06280; inconclusive = small, poorly fitted or top-dose-only inhibition, or a rising curve; inactive = flat fitted curve, though single readings scatter; no compound was filed as active;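 further: 0% = full activity with enzyme and -100% = basal without enzyme; dose as in the result columns while the protocol names 77 µM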
Target sequence (P06280 whole entry, looked up): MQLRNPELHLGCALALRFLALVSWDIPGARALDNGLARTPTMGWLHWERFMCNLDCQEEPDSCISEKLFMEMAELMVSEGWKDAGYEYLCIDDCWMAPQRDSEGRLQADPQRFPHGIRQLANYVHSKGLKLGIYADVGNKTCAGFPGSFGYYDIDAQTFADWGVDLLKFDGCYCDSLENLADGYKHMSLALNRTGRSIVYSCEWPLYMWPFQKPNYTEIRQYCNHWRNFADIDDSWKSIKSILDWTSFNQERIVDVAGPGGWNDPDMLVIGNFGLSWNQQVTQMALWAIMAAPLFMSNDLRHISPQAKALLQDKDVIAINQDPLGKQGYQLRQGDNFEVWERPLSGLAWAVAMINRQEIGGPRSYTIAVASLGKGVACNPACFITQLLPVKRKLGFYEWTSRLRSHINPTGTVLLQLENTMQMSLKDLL
Rango complex inh: inhibitors of Rango-importin beta complex formation. Q14974. Rango CFP/YFP FRET sensor + importin beta, 45 min. Potency, µM (top dose mostly 92.2 µM), for inactives: at the highest dose inhibition of complex formation. actives 0.031% (n = 340,000). AID 540263; active = rising FRET ratio curve, often small or poorly fitted; inconclusive = mostly compound fluorescence or quenching in the first reads; inactive = flat curves in all reads;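 further: potency means the concentration at half of the fitted maximal effect; 0% = DMSO wells and 100% = buffer wells lacking importin beta; nearly all actives have a fitted effect of over 15% in size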
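FRET biosensor (snurportin 1 IBB flanked by EYFP and cerulean), 50 nM, with compound 5 min, then 0.125 microM importin beta in PBS, 1 mM DTT, 0.02% Tween-20, 0.1% BSA. CFP/YFP ratio read after 45 min at room temperature; pre-read flags interference.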
* = called active by the depositor; ? = inconclusive; . = no result given; & = joins results of further samples. A portion of the library; the hit share may differ from the screen's.

miR-21 reporter	GLA inh pH 4.5	Rango release inh	Rango complex inh	molecule
1%	.	-1%	0.7%	CCc1ccccc1NC(=S)Nc1cc(OC)c(NC(=O)C(C)C)cc1OC
.	.	5%	0.5%	OC[C@@H]1CC[C@@H](Cc2ccc(-c3ccccc3)cc2)O1
.	.	-11%	0.0%	CC[C@@]12C(=O)N(c3cccc(Br)c3)C(=O)N1[C@H](c1ccc(Br)cc1)[C@@H]1C(=O)N(C(C)(C)C)C(=O)[C@@H]12
-5%	.	-11%	0.1%	CCOc1ccc(NC(=O)c2sc3nc(N4CCOCC4)c4c(c3c2N)CC(C)(C)OC4)cc1
-4%	-3	-1%	-0.3%	CCOC(=O)C1CCN(C(=O)COc2cc(C)c(Br)cc2C)CC1
-6%	-2	-13%	-0.3%	CC(OC(=O)c1ccccc1O)C(=O)Nc1ccc(Cl)cn1 (centres undefined)
-14%	-9	38%	-0.4%	CCN(CC)c1ccc(CN(C(=O)c2ccco2)C2CCS(=O)(=O)C2)cc1 (centres undefined)
7%	.	1%	9.0%	CC(=O)c1ccc(S(=O)(=O)N2CCN(C(=O)CSc3ccc(C)c(C)c3)CC2)cc1
-2%	8	0%	2.7%	COc1cc2c(cc1OC)C(C(=O)N1CCCCC1)C(c1ccccc1F)N(C)C2=O (centres undefined)
-16%	.	-2%	3.2%	CC1CCCC(NC(=O)c2ccc3snnc3c2)C1C (centres undefined)
-1%	-4	8%	8.0%	CCC(C)NC(=O)c1ccccc1NC(=O)C(C)N(c1ccccc1)S(C)(=O)=O (centres undefined)
-2%	13	-1%	-1.2%	CC(C)Nc1nc(NC(C)C)nc(Oc2ccc(OCc3ccccc3)nn2)n1
0%	-4	-6%	-1.7%	O=C(CN1CCN(Cc2ccccc2Cl)C1=O)NCc1ccco1
20%	2	15%	1.6%	CCCCN(CCCC)c1ncnc2nc[nH]c12
-1%	-5	-1%	0.0%	CC1(C)Cc2nc(Cl)c(C#N)cc2CO1
?	-12&4	16%&-16%	3.9%&3.0%	CC1CCC(C(C)C)C(OC(=O)Cn2c(-c3ccc(Br)cc3)[n+](C)c3ccccc32)C1 (centres undefined)
-9%	-12	0%	-0.9%	N#Cc1c(-c2ccco2)ccn(Cc2ccc(F)cc2)c1=O
0%	-2	17%	-1.9%	COc1ccc(/C=C2\SC(=S)N(N3CCOCC3)C2=O)c(OC)c1
-5%	-7	-5%	-2.8%	CN(C)C(=O)c1ccc(N/C=C(\C=O)c2nc3ccccc3o2)cc1
-1%	8	27%	-0.8%	CCOC(=O)COc1cc(-n2c(=S)[nH]c3ccccc3c2=O)c(Cl)cc1Cl
-5%	-21	23%	-0.6%	Cn1c(N2CCN(C(=O)Nc3ccc(F)cc3)CC2)nc2ccccc21
-19%	-16	7%	4.5%	Cc1nc2cc(N3CCCCC3)c(NC(=O)c3ccncc3)cc2c(=O)n1Cc1ccccc1
2%	7	?	0.9%	CCc1nnc(N2C(=N)SCC2=O)s1
-2%	-2	-13%	-0.2%	CCCc1nc2ccccc2c(=O)n1NC(=O)c1c(O)c2cccc3c2n(c1=O)CCC3
-31%	9	?	0.0%	O=C(NN(C(=O)C1CC1)c1nc2ccccc2s1)C1CC1
-54%	2	4%	4.0%	COc1ncccc1-c1nnn(-c2ccc(F)cc2)n1
-7%	-11	-7%	-6.3%	COc1ccc(N2CCN(C(=O)C(=O)c3c(C)n(C)c4ccccc34)CC2)cc1
-2%	11	9%	1.6%	O=C(CN1C(=O)S/C(=C/c2cccnc2)C1=O)N1CCOCC1
-2%	8	18%	-1.3%	C=CCn1c(C)cc(C)c(C#N)c1=O
1%	.	4%	-1.1%	CCOc1cc(C(C(=O)NCC2CCCO2)N(C(=O)Cn2nnc3ccccc32)c2ccccc2C)ccc1O (centres undefined)
2%	11	1%	0.4%	COc1ccc(C(c2sc3nc(C)nn3c2O)N2CCc3ccccc3C2)cc1 (centres undefined)
.	.	9%	0.0%	CCOC(=O)N1CCN(C(=O)COC(=O)C2CCN(S(=O)(=O)c3c(Cl)cccc3Cl)CC2)CC1
-10%	-24	17%	-4.9%	O=C(CCn1nnc(-c2cccs2)n1)N1CCc2ccccc2C1
0%	.	17%	-0.1%	CC(=O)Nc1ccc(S(=O)(=O)N2CCN(S(=O)(=O)c3ccc(F)c(F)c3F)CC2)cc1
12%	.	19%	-2.3%	Cc1ccc(N(C)C(=O)c2cc(S(=O)(=O)N3CCCCC3)c[nH]2)cc1
.	.	2%	1.9%	O=C(c1ccccc1)N1CCN(S(=O)(=O)c2ccc(Cl)c(C(F)(F)F)c2)CC1
4%	.	-7%	-1.0%	Cc1ccc(S(=O)(=O)N2CCN(C(=O)Cc3ccc(S(=O)(=O)N4CCOCC4)s3)CC2)cc1
-16%	.	32%	2.6%	O=S(=O)(Cc1ccccc1Cl)NCCc1ccc(F)cc1
-8%	-14	0%	-1.3%	CC(C)(C)NC(=O)c1ccc2c(c1)C1C3CCC(C3)C1C(c1ccccc1)N2 (centres undefined)
-2%	.	24%	0.2%	O=C(Cn1nnnc1CN1CCOCC1)N1CCC(c2cccc(Cl)c2)C1 (centres undefined)
-6%	-8	-3%	-3.6%	O=C(NNc1ccccc1C(F)(F)F)c1sccc1Br
?	.	13%	8.7%	CCN(Cc1ccccc1)C(=O)CCNS(=O)(=O)c1ccc2c(c1)CC(C)N2C(C)=O (centres undefined)
.	.	-9%	1.1%	Cc1cccc(C)c1NC(=O)CN(C)C(=O)c1ccccc1Sc1ccccc1C#N
-8%	-11	0%	0.8%	CCOc1ccc(NC(=O)C2CCCN(C)C2)cc1 (centres undefined)
-31%	.	14%	0.0%	O=C(NCc1cccc(Cl)c1)c1ccc2c(c1)OCCO2
.	.	-12%	3.8%	Cc1[nH]c2ccc(C(=O)OC(C)C(=O)N(C)c3ccccc3)cc2c1C (centres undefined)
-4%	.	3%	-0.9%	COc1ccc(/C=C/C(=O)N2CC(C)OC(C)C2)cc1OC (centres undefined)
-5%	-10	-7%	-1.3%	CN(C)CCOC(=O)CCCCCCCCC(=O)OCCN(C)C
0%	.	24%	1.9%	O=C(CN1C(=O)C2C3C=CC(C3)C2C1=O)OCC(=O)c1ccc(Br)cc1 (centres undefined)
0%	.	-5%	0.8%	Cc1cc(C)n(-c2ccc(NC(=O)C3CCCCN3C(=O)c3ccoc3)cc2)n1 (centres undefined)
.	.	10%	0.5%	CN(CC(=O)Nc1ccc(Cl)c(C(F)(F)F)c1)C(=O)c1cccc2cccnc12
0%	8	4%	3.4%	C=CCn1c(SCc2c(C)noc2C)nc2cc(C(=O)O)ccc2c1=O
.	.	0%	0.7%	C[n+]1cccc(O)c1SCc1ccccc1
-1%	.	20%	4.3%	CCOC(=O)c1c(C)[nH]c(C)c1S(=O)(=O)NCc1cc(C)ccc1C
-4%	5	?	?	O=C(c1cnn2c(C(F)(F)F)cc(-c3cccs3)nc12)N1CCOCC1
-2%	-8	?	-6.9%	COc1ccc(NC(=S)NN2CCN(C)CC2)cc1

New compounds follow:
miR-21 reporter	GLA inh pH 4.5	Rango release inh	Rango complex inh	molecule
.	.	1%	1.3%	O=S1(=O)CCOC[C@H](Cc2ccccc2)N1Cc1ccc(Cl)cc1
-38%	-8	31%	0.7%	O=C(Cc1cccs1)Nc1ccccc1C(=O)O
-3%	.	-1%	-0.2%	COc1ccc(N(Cc2cc3cccc(C)c3[nH]c2=O)S(=O)(=O)c2ccc(Cl)cc2)cc1
0%	.	-3%	-1.6%	O=[N+]([O-])c1ccc(Oc2cc(NC3CCCCCCC3)c([N+](=O)[O-])cc2[N+](=O)[O-])cc1
0%	3	-8%	-1.0%	O=C(c1ccc(Br)s1)N1CCN(C/C=C/c2ccccc2)CC1
8%	.	0%	2.0%	Cc1ccc(NC(=O)c2cccc(Oc3ccc([N+](=O)[O-])cc3)c2)c(C(=O)O)c1
-15%	0	-2%	-1.5%	O=C(c1ccccc1)c1cnc[nH]1
-2%	.	1%	-0.6%	CCc1cccc2sc(NC(=O)C3CC3)nc12

As a short view, part of the list above.
miR-21 reporter	GLA inh pH 4.5	Rango release inh	Rango complex inh	molecule
-38%	-8	31%	0.7%	O=C(Cc1cccs1)Nc1ccccc1C(=O)O
-3%	.	-1%	-0.2%	COc1ccc(N(Cc2cc3cccc(C)c3[nH]c2=O)S(=O)(=O)c2ccc(Cl)cc2)cc1
0%	.	-3%	-1.6%	O=[N+]([O-])c1ccc(Oc2cc(NC3CCCCCCC3)c([N+](=O)[O-])cc2[N+](=O)[O-])cc1
0%	3	-8%	-1.0%	O=C(c1ccc(Br)s1)N1CCN(C/C=C/c2ccccc2)CC1
8%	.	0%	2.0%	Cc1ccc(NC(=O)c2cccc(Oc3ccc([N+](=O)[O-])cc3)c2)c(C(=O)O)c1
-15%	0	-2%	-1.5%	O=C(c1ccccc1)c1cnc[nH]1
-2%	.	1%	-0.6%	CCc1cccc2sc(NC(=O)C3CC3)nc12

Going on with the list.
miR-21 reporter	GLA inh pH 4.5	Rango release inh	Rango complex inh	molecule
-3%	.	0%	0.1%	Cc1cc(-c2ccc(C)c(S(=O)(=O)Nc3cc(C)on3)c2)on1
5%	-3	7%	-1.4%	CCNc1nc(NCC)n2c(SCC(=O)Nc3ccc(C(F)(F)F)cc3[N+](=O)[O-])nnc2n1
-1%	5	12%	-0.7%	O=C(c1ccc(Cn2cc([N+](=O)[O-])cn2)o1)N1N=C(C(F)F)CC1(O)C(F)F (centres undefined)
28%	4	-2%	-1.1%	O=C(NCC1CCCO1)C(=Cc1cccc([N+](=O)[O-])c1)C(=O)NCC1CCCO1 (centres undefined)
-4%	-2	1%	3.1%	Nc1cccc2nsnc12
.	.	-3%	?	CC(=O)N(C)c1ccc(N=Nc2ccc3ncccc3c2)cc1
.	.	15%	2.0%	C/C=C1\COC(C(=O)NCCCN2CCCC2=O)(C(F)(F)F)C=C1C=C(C)C (centres undefined)
2%	8	-7%	1.1%	CCOCCCNC(=O)C(c1ccc(Cl)cc1)N1CCC2(CC1)OCCO2 (centres undefined)
10%	5	-25%	0.2%	CCCC1C(C(=O)OCC)=C(C)NC(C)=C1C(=O)OCC
.	.	0%	-4.1%	CCOC(=O)C1=C(COC(=O)/C=C/c2ccc(OC)cc2)NC(=O)NC1C (centres undefined)
2%	-2	.	.	COc1ccc(CSc2nnc3n(C)c(=O)c4c5c(sc4n23)CCCC5)cc1
.	.	8%	-1.0%	Cc1c(C(=O)OCC(=O)NCCN2C(=O)CSC2=O)cccc1[N+](=O)[O-]
-6%	5	2%	1.9%	CCC/C(O)=C1\C(=O)CCCC1=NCCCCCC(=O)O
-16%	-3	-1%	-1.4%	Cc1ccccc1Cc1c(C)nc2ncnn2c1C
2%	-3	1%	0.6%	CN(Cc1ccccc1)c1ccc([N+](=O)[O-])cc1C(=O)O
2%	.	10%	-0.9%	O=C(Nc1ccc(S(=O)(=O)N2CCOCC2)cc1)c1cccc(Br)c1

Reprinted at random: 3 entries already listed
miR-21 reporter	GLA inh pH 4.5	Rango release inh	Rango complex inh	molecule
-54%	2	4%	4.0%	COc1ncccc1-c1nnn(-c2ccc(F)cc2)n1
.	.	15%	2.0%	C/C=C1\COC(C(=O)NCCCN2CCCC2=O)(C(F)(F)F)C=C1C=C(C)C (centres undefined)
2%	-3	1%	0.6%	CN(Cc1ccccc1)c1ccc([N+](=O)[O-])cc1C(=O)O

Compound activity as filed in PubChem.
